High-throughput results from PubChem BioAssay.
Sa helicase inh: S. aureus DNA helicase inhibition | purified S. aureus helicase, fluorescence unwinding assay; about half of the hits fall short of the stated cut | inhibition, %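 (tested at about 80 µM)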 | 120,000 compounds, 0.05% hits;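 active means both duplicates at 50% or more, or one of them with a favoured structure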;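 further: 0% = mean of negative control wells and 100% = mean of positive control wells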
MgrA DNA FP: modulators of Staphylococcus aureus MgrA DNA binding; fluorescence polarization; inhibition, %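 (about 10 µg/mL by stock and volumes)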; 84,000 compounds, 0.13% hits; AID 602314;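 active means above 50% in either of two replicates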;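 further: 0% = protein plus DNA without compound and 100% = DNA alone without protein; higher means less MgrA bound to DNA so lower polarization; one replicate is shown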
Active calls of the source: *; . = no result given; & = joins results of further samples.

SMILES | Sa helicase inh | MgrA DNA FP
COc1ccc(OC(=O)/C=C/c2sc3ccccc3c2C)cc1 | . | -0.7
CCOC(=O)C1=C(C)Nc2ccccc2N=C1NC(=O)c1oc2ccccc2c1COC | -6 | .
CCOC(=O)Cn1nc2n(c1=O)-c1ccccc1SC2 | 2 | .
CCn1c(CCNC(=O)C2CCCCC2)nc2ccccc21 | 5 | -1.6
COc1ccc(C(CC(=O)NC2CC2)n2cccc2)cc1 (stereo not drawn) | 6 | .
CCc1ccc(NC(=O)Cn2nc(-c3ccc(OC)cc3)ccc2=O)cc1 | -2 | -2.0
O=C(Cn1cccc1)N1CCN(C(c2ccccc2)c2ccccc2)CC1 | 16 | -3.7
O=C(Cc1ccc(Cl)cc1)c1ccc(Cl)cc1 | -23 | -0.9
Cc1ccc(NC(=O)C(C)Sc2nc(=O)cc(N)n2CCc2ccccc2)cc1 (stereo not drawn) | -7 | .
COc1cccc(NC(=O)N(Cc2cc3ccc(C)cc3n3nnnc23)CC2CCCO2)c1 (stereo not drawn) | 6 | 3.8
CCS(=O)(=O)N1CCN=C1SCc1ccc(Cl)cc1Cl | 23 | .
Cc1cccc(C)c1NC(=O)CCC(=O)O | -7 | -2.6
Cc1nc(-c2cccnc2)nc(N(C)C)c1Cl | . | -1.6
Cc1ccc(Nc2nc(C)nc3c2oc2ccccc23)cc1 | 6 | 3.6
CCCC1CC(C)(c2csc(NCC)n2)OC1=O (stereo not drawn) | 7 | -1.1
Brc1ccc(Cn2c3ccccc3c3nc4cc5ccccc5cc4nc32)cc1 | . | -0.9
CCCCn1c(=O)c(CC)c(O)c2ccccc21 | . | -2.3
O=C(NC1CCCCC1)c1c[nH]c2ccccc2c1=O | 6 | -1.3
CCCCNC(=O)c1cccc(N2CCCC2=O)c1 | -30 | .
COc1ccc(C(=O)N2CCC(C(=O)Nc3ccc4c(c3)OCCO4)CC2)cc1 | -25 | .
CCOC(=O)c1c(C)n(C)c2ccc(OC(=O)NC3(C(F)(F)F)Oc4ccc(Cl)cc4O3)cc12 (stereo not drawn) | . | 2.3
CCOc1ccc(/C(O)=C2\C(=O)C(=O)N(Cc3cccnc3)C2c2ccc(N(C)C)cc2)c(C)c1 (stereo not drawn) | 21 | .
CN(C)S(=O)(=O)N1CCCc2ccccc21 | 21 | .
CC1CCCN(CC(=O)c2ccc(Cl)s2)C1 (stereo not drawn) | -12 | .
O=C(Nc1ccccc1)c1cc2ccccc2oc1=O | 22 | .
NS(=O)(=O)c1ccc(CCNc2ccc3nnc(-c4ccccc4)n3n2)cc1 | -22 | .
O=c1nc2c(-c3cccc(C(F)(F)F)c3)n[nH]n2c2ccccc12 | 7 | 1.2
Cc1cccc(N(C)S(=O)(=O)c2cnc[nH]2)c1 | 11 | .
CONS(=O)(=O)c1ccc(OCC(=O)OC)cc1 | 9 | -2.0
CCOC(=O)C1=C(CC)Nc2ccccc2N=C1NC(=O)C1Cc2ccccc2CN1S(=O)(=O)CC (stereo not drawn) | -15 | .
Cc1cccc(N=C(N2CCOCC2)P(=O)(N2CCOCC2)N2CCOCC2)c1 | 14 | .
CN(CC(=O)OC1CCOC1=O)S(=O)(=O)c1ccc(Cl)cc1 (stereo not drawn) | -3 | .
Cc1ccc(CS(=O)(=O)c2ccccc2-c2nnc(-c3ccc(Cl)cc3)o2)cc1 | . | 2.2
NS(=O)(=O)c1ccccc1NC(=S)Nc1ccccc1S(N)(=O)=O | 3 | .
O=C(CC1CCCC1)Nc1cccc(Br)c1 | -24 | -0.9
O=C(c1ccco1)N1N=C(c2c(-c3ccccc3)c3cc(Cl)ccc3[nH]c2=O)CC1c1ccco1 (stereo not drawn) | 9 | 9.4
CC(C)(O)CNS(=O)(=O)c1ccccc1 | -22 | .
COc1ccc2cc(C(=O)NCC(=O)O)sc(=O)c2c1OC | -10 | .
COc1cc(C2C3=C(CC(C)(C)CC3=O)Nc3ccccc3N2C(=O)Cc2ccccc2)cc(OC)c1OC (stereo not drawn) | . | -1.3
Cc1cc(Nc2ccc(S(=O)(=O)N3CCOCC3)cc2)c2ccc(C(F)(F)F)cc2n1 | 2 | .
N#C/C(=C1\CCCN1)c1ccccn1 | 9 | -1.2
CCn1c(-c2ccccc2)c(C(=O)CC#N)c2ccccc21 | -14 | 1.5
O=C(CN1CCCC1)N/N=C/c1c(O)ccc2ccccc12 | 5 | 4.4
CN(C(=O)c1ccco1)C1CC(C)(C)N(C)C(C)(C)C1 | 5 | .
CCNC(=O)CNCc1c(C)nn(CC(C)C)c1Cl | -8 | .
CCN(CC)Cc1cc(Cl)c2cccnc2c1O | 15 | .
CCN1C(=O)C(=Cc2ccc(N3CCCC3)cc2)C(=O)N(CC)C1=S | -2 | -1.0
c1ccc(CSc2ncnc3ccccc23)cc1 | -20 | .
CC(C)(C)c1cc2c3c(cc(C(C)(C)C)cc3c1)CC2 | . | 0.6
N#CCCn1cc(F)c(N)nc1=O | 11 | -2.5
CCCc1ccc(OC(=O)c2ccc(O)cc2Cl)cc1 | -9 | 1.1
CN(NC1OC(=O)c2ccccc21)c1ncc(C(F)(F)F)cc1Cl (stereo not drawn) | . | -0.8
NC(N)=NS(=O)(=O)c1ccc(N/C=C2/CCc3ccccc3C2=O)cc1 | 9 | 5.8
O=C1c2ccccc2C(=O)N1CC(O)COC1CCCCC1 (stereo not drawn) | 13 | -0.7
O=C(CCCCn1c(=O)[nH]c2ccsc2c1=O)NCc1ccccc1 | 7 | -0.5
Cn1c(-c2cc(Br)cs2)nc(=O)c2ccccc21 | . | -2.6
CSc1nc2c(cc1C#N)CCC2 | . | -1.4
CCC(=O)Nc1sccc1C#N | -17 | .
O=C(NCc1ccccc1)C(Cc1ccccc1)NS(=O)(=O)c1ccc(Br)cc1 (stereo not drawn) | 1 | -1.6
COc1ccc(Cl)cc1C(=O)NCCc1ccc(S(=O)(=O)NC(=O)NC2CCCCC2)cc1 | . | 1.9&-0.3&-0.2
Next compounds.
SMILES | Sa helicase inh | MgrA DNA FP
Cc1ccc(S(=O)(=O)N2CCCC2C(=O)n2nc(C)cc2C)cc1 (stereo not drawn) | -1 | .
O=C(CCc1c[nH]c2ccccc12)OCC(=O)c1cccc(Br)c1 | -16 | -2.1
COc1ccccc1NC(=O)CC1S/C(=N\N=C(/C)c2ccccc2)NC1=O (stereo not drawn) | 5 | 3.0
COCCN(Cc1cc2ccc(C)cc2[nH]c1=O)C(=O)c1ccccc1 | 19 | -1.1
CC1CC(C)CN(S(=O)(=O)c2ccc(NC(=O)c3ccc(C#N)cc3)cc2)C1 (stereo not drawn) | 11 | .
Cc1[nH]c2ccccc2c1SCC(=O)N1CCCCC1 | 10 | .
O=C(Nc1cccc(-c2cn3cccnc3n2)c1)c1ccccc1C(F)(F)F | -9 | 0.6
Cc1ccc(S(=O)(=O)N(C)CC(=O)OCc2nc3ccc(Cl)cc3n2CCO)cc1 | 10 | .
Nc1nc(-c2ccccc2)cs1 | -17 | 0.2
O=C(CSc1c2c(nc3ccccc13)CCCC2)N1CCCCC1 | 6 | .
CCOc1ccc2nc3n(c2c1)CC(O)CS3 (stereo not drawn) | -17 | .
Cc1c(C(=O)Nc2ccccc2)oc2ccccc12 | 0 | -0.8
OCc1ccc(-c2cccc(Cl)c2)o1 | 29 | .
CC(C)Cn1cc(NC(=O)N2CCCCCC2)c2ccccc2c1=O | 25 | .
Cc1c(C(=O)NCCCN2CCOCC2)oc2ccc3c(c12)C(=O)CC(C)(c1ccc(Cl)cc1)O3 (stereo not drawn) | 11 | -1.6
COc1ccccc1-c1noc(CCC(=O)Nc2ccccc2C(F)(F)F)n1 | 4 | 0.1
CCCN(CCC)C(=O)c1ccc(Cl)c(Cl)c1 | 7 | -2.2
CCCCn1c(/N=C/c2c[nH]c3ccccc23)nc2ccccc21 | -18 | .
Cc1ccc2oc(=O)c3cc(C(=O)N(C)c4ccccc4)sc3c2c1 | 7 | .
CCc1ccccc1NC(=O)c1cc(CC(C)C)on1 | 5 | .

Compounds shown so far that contain a COOH group (two):
SMILES | Sa helicase inh | MgrA DNA FP
Cc1cccc(C)c1NC(=O)CCC(=O)O | -7 | -2.6
COc1ccc2cc(C(=O)NCC(=O)O)sc(=O)c2c1OC | -10 | .

Later entries
SMILES | Sa helicase inh | MgrA DNA FP
CSc1ccc(/C=C2\SC(N)=NC2=O)cc1 | 2 | .
O=C(NCc1ccc2c(c1)OCO2)c1ccc(NC(=O)C2CCCO2)cc1 (stereo not drawn) | -9 | .
O=c1[nH]nc(Cc2ccccc2)c2ccccc12 | -3 | .
Cc1cc2ncn(C3CC(=O)N(c4ccccc4Cl)C3=O)c2cc1C (stereo not drawn) | 0 | .
CC(=O)Nc1nc(COC(=O)CNC(N)=O)cs1 | 7 | .
CCOC(=O)C12CCC(C(=O)OCC)(CC13SCCS3)C1(C2)SCCS1 | . | 0.5
CCN(C(=O)CSC1=N/C(=C\c2ccco2)C(=O)N1c1ccc(OC(F)F)cc1)C1CCS(=O)(=O)C1 (stereo not drawn) | -4 | .
CCOC(=O)c1sc(N)c(C#N)c1COC(=O)c1cccc(OCc2c(C)noc2C)c1 | -106 | .
Cc1ccc(SCc2cc(=O)n3c(nc4ccccc43)[nH]2)cc1 | 17 | 6.4
NS(=O)(=O)c1ccc(F)cc1F | 14 | 0.8
N#CCOc1ccc2oc(-c3ccccc3)cc(=O)c2c1 | 16 | 1.4
Cc1nc2ccc(C(=O)OCC(=O)Nc3cccnc3Cl)cc2nc1C | -4 | .
COC(=O)c1ccc(NC(=O)CSc2nnc(-c3ccccc3Cl)n2N)cc1 | 8 | 2.6
O=C(NCCN1CCCCC1)c1ccc(-c2ccccc2)cc1 | 20 | -0.1
COc1ccccc1OCCOc1c(Br)cc(C=C2C(=O)NC(=O)NC2=O)cc1OC | . | 7.0
CC(NC1CC1)C(=O)N1CCN(C(=O)c2ccco2)CC1 (stereo not drawn) | -2 | .
COc1ccc(S(=O)(=O)N(C)c2ccnc(C(=O)N3CCCCC3)c2)cc1 | -22 | .
O=C(CNc1cccc(C(F)(F)F)c1)N/N=C1\CC2CC=CC12 (stereo not drawn) | -12 | .
CN(C)CCC(=O)N1c2ccccc2Sc2ccc(C(F)(F)F)cc21 | 1 | 0.6
CCn1cc(SCC(=O)N2N=C(c3cccs3)CC2c2ccc(C)cc2)c2ccccc21 (stereo not drawn) | 7 | -0.2
O=C(O)/C(=C\c1ccccc1)NC(=O)c1ccccc1 | -5 | 2.0
CC1=C(C#N)C(c2cn[nH]c2-c2cccs2)C2=C(CCCC2=O)N1 (stereo not drawn) | . | 4.0
Cc1ccc2[nH]c(C)c(CN3CC(C)OC(C)C3)c(=O)c2c1 (stereo not drawn) | 6 | -2.0
CC(C)Nc1nc(-c2ccccc2)nnc1-c1ccccc1 | . | -1.3
CN(C)/C=C1\OC(=O)c2ccccc21 | . | 1.2
CC1CCN(S(=O)(=O)c2ccc3c(c2)oc(=O)n3C)CC1 | 15 | .
O=C(NCC1CCCN1S(=O)(=O)c1ccccc1)c1ccccc1 (stereo not drawn) | 14 | .
Cc1cc(C(=O)COC(=O)c2ccccc2)c(C)n1-c1nccs1 | 9 | .
COc1ccc(-c2csc(=Nc3ccccc3)n2C)cc1 | -25 | .
COc1cccc(C2C3=C(CC(C)(C)CC3=O)Nc3cc4c(cc32)OCO4)c1 (stereo not drawn) | 27 | .
O=C(Nc1ccc2snnc2c1)NC1CCCC1 | 6 | 0.8
Cc1cc(C)c(C#N)c(SCC(=O)N2CCCCC2)n1 | 7 | 1.9
Clc1ccc(C=Nc2cc(Cl)cc(Cl)c2)cc1 | . | 3.8
COc1ccc(CCNC(=O)c2ccccc2N)cc1OC | . | 2.8
CC(C)(C)NC(=O)Nc1cccc2ccccc12 | 5 | 0.9
COCCn1c(C)cc(C(=O)COC(=O)c2cncc(Br)c2)c1C | 8 | .
O=C(/C=C/c1cccc2ccccc12)Nc1nccs1 | 1 | -1.3
Cc1onc(NC(=O)c2ccc([N+](=O)[O-])o2)c1Br | . | -4.3
NC(N)=NC(N)=NCCc1ccccc1 | . | 4.0

By substructure: the compounds so far with a Cl atom (21)
SMILES | Sa helicase inh | MgrA DNA FP
O=C(Cc1ccc(Cl)cc1)c1ccc(Cl)cc1 | -23 | -0.9
CCS(=O)(=O)N1CCN=C1SCc1ccc(Cl)cc1Cl | 23 | .
Cc1nc(-c2cccnc2)nc(N(C)C)c1Cl | . | -1.6
CCOC(=O)c1c(C)n(C)c2ccc(OC(=O)NC3(C(F)(F)F)Oc4ccc(Cl)cc4O3)cc12 (stereo not drawn) | . | 2.3
CC1CCCN(CC(=O)c2ccc(Cl)s2)C1 (stereo not drawn) | -12 | .
CN(CC(=O)OC1CCOC1=O)S(=O)(=O)c1ccc(Cl)cc1 (stereo not drawn) | -3 | .
Cc1ccc(CS(=O)(=O)c2ccccc2-c2nnc(-c3ccc(Cl)cc3)o2)cc1 | . | 2.2
O=C(c1ccco1)N1N=C(c2c(-c3ccccc3)c3cc(Cl)ccc3[nH]c2=O)CC1c1ccco1 (stereo not drawn) | 9 | 9.4
CCNC(=O)CNCc1c(C)nn(CC(C)C)c1Cl | -8 | .
CCN(CC)Cc1cc(Cl)c2cccnc2c1O | 15 | .
CCCc1ccc(OC(=O)c2ccc(O)cc2Cl)cc1 | -9 | 1.1
CN(NC1OC(=O)c2ccccc21)c1ncc(C(F)(F)F)cc1Cl (stereo not drawn) | . | -0.8
COc1ccc(Cl)cc1C(=O)NCCc1ccc(S(=O)(=O)NC(=O)NC2CCCCC2)cc1 | . | 1.9&-0.3&-0.2
Cc1ccc(S(=O)(=O)N(C)CC(=O)OCc2nc3ccc(Cl)cc3n2CCO)cc1 | 10 | .
OCc1ccc(-c2cccc(Cl)c2)o1 | 29 | .
Cc1c(C(=O)NCCCN2CCOCC2)oc2ccc3c(c12)C(=O)CC(C)(c1ccc(Cl)cc1)O3 (stereo not drawn) | 11 | -1.6
CCCN(CCC)C(=O)c1ccc(Cl)c(Cl)c1 | 7 | -2.2
Cc1cc2ncn(C3CC(=O)N(c4ccccc4Cl)C3=O)c2cc1C (stereo not drawn) | 0 | .
Cc1nc2ccc(C(=O)OCC(=O)Nc3cccnc3Cl)cc2nc1C | -4 | .
COC(=O)c1ccc(NC(=O)CSc2nnc(-c3ccccc3Cl)n2N)cc1 | 8 | 2.6
Clc1ccc(C=Nc2cc(Cl)cc(Cl)c2)cc1 | . | 3.8

Some of the compounds tested; the hit share may differ from the screen's.
